Bioassay records as filed in PubChem.
LANA-H2A inh: blocks KSHV LANA binding to histone H2A/H2B; Q9QR71; cell-free LANA-H2A/H2B peptide, fluorescence polarization; inhibition, % (concentration not given with the values); 320,000 compounds, 0.6% hits; in the data active means inhibition mostly above about 10%, no sharp cut-off; inactive means mostly below about 6.7%;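 further: stock transfer was 7.5 nL into about 10 µL; 0% = median of vehicle wells and 100% = median of positive control wells; one replicate is shown; the record names a cut of 25% in any replicate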
Target sequence (Q9QR71 whole entry, looked up): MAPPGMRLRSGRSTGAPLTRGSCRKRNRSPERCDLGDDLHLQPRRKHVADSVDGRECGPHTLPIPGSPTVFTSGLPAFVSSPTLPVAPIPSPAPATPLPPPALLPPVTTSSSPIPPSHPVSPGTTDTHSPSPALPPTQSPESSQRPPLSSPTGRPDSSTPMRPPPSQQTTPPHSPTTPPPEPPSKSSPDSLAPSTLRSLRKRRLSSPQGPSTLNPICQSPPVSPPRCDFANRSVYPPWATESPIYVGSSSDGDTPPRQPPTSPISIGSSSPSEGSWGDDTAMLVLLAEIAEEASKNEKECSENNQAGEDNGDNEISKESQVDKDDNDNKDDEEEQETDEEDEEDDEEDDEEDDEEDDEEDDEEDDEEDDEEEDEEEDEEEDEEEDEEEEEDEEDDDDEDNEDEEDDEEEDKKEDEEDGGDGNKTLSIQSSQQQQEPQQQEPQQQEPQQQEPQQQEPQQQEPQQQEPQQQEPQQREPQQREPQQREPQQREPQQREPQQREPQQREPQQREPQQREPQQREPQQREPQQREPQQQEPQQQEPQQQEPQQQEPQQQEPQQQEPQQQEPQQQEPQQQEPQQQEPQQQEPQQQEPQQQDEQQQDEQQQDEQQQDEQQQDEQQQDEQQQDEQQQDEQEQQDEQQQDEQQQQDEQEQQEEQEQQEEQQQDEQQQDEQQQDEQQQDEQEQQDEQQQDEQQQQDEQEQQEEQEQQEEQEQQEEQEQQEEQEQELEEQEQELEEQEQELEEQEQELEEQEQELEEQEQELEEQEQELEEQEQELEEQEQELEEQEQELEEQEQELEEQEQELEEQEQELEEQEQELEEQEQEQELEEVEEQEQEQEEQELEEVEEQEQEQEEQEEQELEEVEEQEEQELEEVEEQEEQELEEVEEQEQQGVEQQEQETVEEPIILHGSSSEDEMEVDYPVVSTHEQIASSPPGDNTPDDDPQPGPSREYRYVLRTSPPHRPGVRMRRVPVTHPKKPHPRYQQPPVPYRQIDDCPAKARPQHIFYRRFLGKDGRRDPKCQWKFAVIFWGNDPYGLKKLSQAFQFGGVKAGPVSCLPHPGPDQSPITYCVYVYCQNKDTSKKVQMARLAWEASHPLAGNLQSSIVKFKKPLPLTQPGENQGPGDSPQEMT
Vif TR-FRET: HIV-1 Vif–A3G interaction blockers – biochemical, TR-FRET, GST-Vif 1-94, biotin-A3G peptide, dose response retest, primary screen (AID 1117319) | TR-FRET GST-Vif / biotin-A3G peptide binding; higher % means a stronger effect; test concentration not given here; strong numbers were not always called active | inhibition, %, or IC50 in µM where a hit was titrated | 260,000 compounds, 0.57% hits;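 active means above the screen mean plus three standard deviations and confirmed in dose response; inconclusive means results disagree or hit not tested in dose response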;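 further: Vif residues 1-94 fused to GST binding biotinylated APOBEC3G peptide 110-148; 0% = full assay without inhibitor and 100% = GST in place of GST-Vif; retest series ran down from 100 µM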
Beta2AR agonist: agonists of human beta-2 adrenergic receptor inducing internalization; P07550; Am2.2-beta2AR cells, FAP receptor internalization, flow cytometry; reference of the scale not given here; response, % (test concentration not listed); 340,000 compounds, 0.43% hits;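 active means response above a set limit, near 3 SD of response in nonfluorescent compounds, cut at about 42% in these data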;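 further: stock transfer was 100 nL into about 11 µL; a reference agonist was the positive control; negative values mostly stem from fluorescent compounds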
Ecoli growth: inhibitors of Escherichia coli growth. OD600, 23 h; hits give low values. OD600 absorbance (concentration not given with the values). 330,000 compounds, 0.21% hits;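 active means OD600 absorbance below the run mean of sample wells minus 3.6 SD, in any replicate, cut at about 0.56 in these data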;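 further: stock transfer was 300 nL into about 60 µL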
HNF4A DNA FP: change in binding of human HNF4 alpha to DNA | activity change, % at 10 µM | P41235 | 360,000 compounds, 0.3% hits | AID 1224865 | HNF4a-FITC DNA binding, fluorescence polarization, 1 h; in the data active means activity change above about 30%, passing the limit was not always enough;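 further: controls were the assay level and a saturating level of protein; the project sought stronger binding though the title names inhibitors; some compounds called inactive have numbers as strong as hits; positive values seem to mean higher polarization but the record does not say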
Bfl-1 A1 inh: inhibitors of the anti-apoptotic protein A1, read as caspase activation. MEF A1-2A-BIM cells, Caspase-Glo 3/7 luminescence, 3 h; percent of clofoctol response, vehicle zero. caspase activation, % (concentration not given with the values). 330,000 compounds, 0.066% hits. AID 2462;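 active means over half of replicate activation scores above 10%, or exactly half above 10 with the replicate mean above 10; inconclusive means replicate mean below 10 yet half the replicates above 10; inactive means over half of replicates below 10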;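 further: wells of about 30 µL received 50 nL stock; many hits fall short of the cut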
UCH37 inh: inhibitors of human deubiquitinating enzyme UCH37. Q9Y5K5. purified proteasome/UCH37, Ub-AMC cleavage fluorescence. inhibition, % (no concentration beside the values). 330,000 compounds, 0.33% hits. AID 588478;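 active means mean of two replicates above 20%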;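 further: 0% = compound-free wells with enzyme and 100% = wells lacking proteasome; stock transfer was 100 nL into about 20 µL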
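Material: Human UCH37 enzyme supplied as purified proteasome complex | Schedule: 30 min preincubation with enzyme, 25 min cleavage at room temperature | Detection: AMC fluorescence 355/460 nm | Measure: % inhibition of Ub-AMC cleavage fluorescence | Controls: Wells without proteasome as full block, compound-free enzyme plus substrate as uninhibited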
The depositor's hits bear a star; u = inconclusive; x = no result given. The order is random (roughly 2.1% active in at least one column).

SMILES	LANA-H2A inh	Vif TR-FRET	Beta2AR agonist	Ecoli growth	HNF4A DNA FP	Bfl-1 A1 inh	UCH37 inh
O=C(OCn1ncc(Cl)c(Cl)c1=O)c1ccccc1Cl	-1.4	-21%	40	0.65	0.2	-0.2	3.7
COc1ccccc1C(=O)N/N=C(\C)CC(=O)Nc1ccc(Cl)cn1	1.0	u	-6	x	-2.4	-1.0	x
CC1CCCC(C)N1c1nnc(NC(=O)c2cc(-c3ccc(Br)cc3)on2)s1 (stereo not given)	0.1	-5%	2	x	-1.0	-0.6	x
Cc1nnc2c(SC(C)C)nc3ccccc3n12	7.5	x	12	0.66	0.8	0.9	3.3
CCn1cc(Cl)c(C(=O)Nc2ccccc2C(N)=O)n1	-4.0	4%	2	0.7	-2.3	-1.1	0.6
COc1ccc(C)cc1NC(=O)C1CCCN(S(=O)(=O)c2cnc[nH]2)C1 (stereo not given)	-2.5	1%	14	0.73	0.0	-0.4	5.1
O=C(COC(=O)CCc1nc2ccccc2n1-c1ccccc1)Nc1cccc(Cl)c1	3.0	x	2	0.7	-1.4	-0.6	1.6
CCCOC(=O)c1ccc(NC(=O)C(CC)CC)cc1	-1.0	4%	9	0.67	0.9	0.3	-0.9
COc1cc([N+](=O)[O-])ccc1N1C(=O)CC(Sc2nccc(C)n2)C1=O (stereo not given)	15*	x	-7	0.67	-2.2	0.2	6.1
Cc1oc(-c2ccc(F)cc2)cc1-c1nn2c(-c3ccoc3C)nnc2s1	1.7	x	3	0.71	-40	0.4	5.9
CN1CCN(NC(=O)CN2C(=O)S/C(=C\c3c(Cl)cccc3Cl)C2=O)CC1	2.0	-5%	3	0.69	1.9	2.1	1.2
CCOC(=O)c1ccc(NC(=S)NCc2ccco2)cc1	4.0	x	2	0.67	2.0	-0.3	4.1
CC(=O)Nc1ccc(C(=O)COC(=O)c2cccs2)c(F)c1	0.8	x	15	0.65	-0.7	-1.3	1.3
COc1ccc2cc(C(c3nnnn3C3CCCC3)N3CCCCCC3)c3nnnn3c2c1 (stereo not given)	-1.2	3%	-2	0.78	-1.6	-1.5	0.9
CC(CCc1ccccc1)NC(=O)COC(=O)c1ccccc1Br (stereo not given)	1.9	-5%	-3	0.66	-2.2	0.5	0.2
Cc1ccc(NC(=O)CN(C)C(=O)c2cc(-c3ccco3)nc3ccccc23)cc1	-3.8	56%	0	0.66	-25	-0.4	-267
COc1cc(C(=O)NCCNc2nc3cc(C)ccc3cc2C#N)cc(OC)c1OC	2.3	-7%	-3	0.69	0.2	0.4	-129
O=C(CSc1n[nH]c(=O)[nH]c1=O)NC1CC1	2.3	x	-3	0.68	3.2	u	7.1
CCOc1cccc(CNc2ccc(O)cc2)c1OCc1ccccc1Cl	5.6	6.6µM*	5	0.71	-4.5	-0.2	3.7
Cc1[nH]c2ccc(C(=O)NC3CCCC3)cc2c1C	-0.1	x	5	0.65	0.9	0.8	2.0
CCN(C(=O)CCS(=O)(=O)c1ccc(Br)cc1)c1ccc2c(c1)OCO2	2.9	27%	-5	0.79	-2.8	0.7	2.1
CC(C)C1Cc2c(sc3c2c(=O)n(-c2ccccc2)c2n[nH]c(=S)n32)CO1 (stereo not given)	-0.3	9%	6	0.67	2.2	0.5	1.9
N/C(=N\OC(=O)c1ccc(Cl)cc1)c1[nH]ncc1Br	3.3	-17%	-1	0.64	7.0	-7.4	2.3
Cn1nc(C(F)(F)F)cc1-c1ccc(/C=C(\C#N)C(=O)c2cccc(C(F)(F)F)c2)s1	-20	-5%	8	0.65	-0.5	-0.5	6.1
COc1cc(C2N(c3ccccc3)CCN2c2ccccc2)ccc1OC(C)=O	-0.2	4%	-5	0.77	0.6	-0.9	0.9

New compounds follow
SMILES	LANA-H2A inh	Vif TR-FRET	Beta2AR agonist	Ecoli growth	HNF4A DNA FP	Bfl-1 A1 inh	UCH37 inh
CC(=O)c1sc(NC(=O)CCNC(=O)c2ccco2)nc1-c1ccccc1	-0.1	x	4	0.66	-2.4	0.3	4.5
COC(=O)c1c(N)sc2c1CCN(c1ncc(C(F)(F)F)cc1Cl)C2	-0.6	-1%	-16	0.69	-3.1	-0.1	-1.1
Cc1oc(-c2ccccc2)cc1C(=O)Nc1ccc2ccccc2c1	4.2	-2%	0	0.7	3.1	0.6	4.1
CC1Cc2cc(/C(O)=C3/C(=O)C(=O)N(CCCn4ccnc4)C3c3ccco3)ccc2O1 (stereo not given)	3.4	5%	12	0.76	-1.4	-0.4	8.9
COc1ccc(NC(=O)c2ccco2)cn1	11	x	7	0.69	-18	0.0	1.9
COCCN(CC(=O)Nc1cccc(S(=O)(=O)N2CCCC2)c1)Cc1nc2ccccc2c(=O)[nH]1	x	-6%	16	0.7	-0.5	x	-1.0
O=S(=O)(c1ccc2nc(N3CCN(c4ccccc4F)CC3)ccc2c1)N1CCCCC1	-0.8	x	8	0.73	1.3	0.9	-41
NS(=O)(=O)c1cccc(NC(=O)COC(=O)CCSc2ccccc2)c1	-3.0	10%	-1	0.66	-1.5	0.0	1.6
CN(CCc1ccccn1)Cc1ccc(Cl)cc1	-5.7	-1%	-4	0.72	-0.8	0.3	2.4
O=C(COC(=O)CNC(=O)c1cccc([N+](=O)[O-])c1)Nc1ccccc1OC(F)F	2.3	x	9	0.69	-0.6	0.8	4.6
C=CCn1c(SCC(=O)Nc2ccccc2C)nc2sc(C)c(C)c2c1=O	7.8	23%	-6	0.73	1.9	-0.2	-1.4
O=C1[C@H]2[C@@H](c3ccc(F)cc3)N3C(=O)N(c4ccc(Br)cc4)C(=O)[C@@]3(Cc3ccccc3)[C@H]2C(=O)N1C1CCCCC1	2.0	x	-8	0.8	3.0	1.3	2.1
CC(C)OC(=O)c1cccc(C(=O)Nc2cccc(NC(=O)c3cccc(C(=O)OC(C)C)n3)n2)n1	-3.9	4%	9	0.74	2.0	0.0	-0.1
CC(C)Cn1c(N)c(C(=O)COC(=O)Cc2cccs2)c(=O)n(C)c1=O	-13	4%	-3	0.72	-4.7	-0.1	1.9
S=C(Nc1ccccc1)Nc1nc2ccccc2n1CCOc1ccc(Cl)cc1	-7.3	x	-9	0.7	-5.2	-0.7	1.5
CCCCC(=O)Nc1nc(C)c(-c2csc(Nc3cc(Cl)ccc3OC)n2)s1	-2.3	10%	10	0.72	7.9	u	-0.2
CC(C)Oc1ccc(C(=O)NC2CCN(Cc3ccccc3)CC2)cc1	-1.1	-6%	-6	0.68	0.5	1.3	5.0
CC1CCc2c(sc(NC(=S)NC(=O)c3ccccc3)c2C#N)C1 (stereo not given)	-8.5	u	5	0.77	-1.2	-1.0	1.4
N#C/C(=C(/O)COc1ccc(Cl)cc1)c1nc2ccccc2s1	-3.5	6%	14	x	-1.2	-2.7	x
N#CC1=C(N)Oc2cc(N)ccc2C1c1ccc(F)cc1 (stereo not given)	5.1	-1%	-11	0.67	-0.3	0.5	4.0
O=C(COc1ccccc1)N1CCN=C1SCc1ccccc1	-11	-3%	3	0.69	1.7	0.1	-2.0
Cc1cc(=O)c(C(=O)O)nn1-c1ccccc1F	6.4	x	-2	0.69	1.9	0.3	5.6
COc1ccc(C(=O)NN(C)c2nc(C(F)(F)F)nc3ccccc23)cc1	-1.2	x	13	0.67	2.3	-0.7	1.7
O=C(NCc1cccs1)C(=O)NCC(c1ccco1)N1CCN(c2ccccc2F)CC1 (stereo not given)	1.8	-8%	2	0.72	-0.3	0.1	0.1
CCOc1cc(/C=C2\C(=N)N3N=C(N4CCCCC4)SC3=NC2=O)ccc1OC(=O)c1ccco1	-2.0	x	3	0.68	3.1	0.0	4.9

More results follow:
SMILES	LANA-H2A inh	Vif TR-FRET	Beta2AR agonist	Ecoli growth	HNF4A DNA FP	Bfl-1 A1 inh	UCH37 inh
Cc1ccc(NC(=O)/C(=C\C=C\c2ccccc2)NC(=O)c2ccccc2)cc1	-1.1	-3%	3	x	-1.2	1.1	1.6
O=C(NC1CCCC1)C(c1ccncc1)N(CCCN1CCOCC1)C(=O)c1ccc(-c2ccccc2)[nH]1 (stereo not given)	1.6	-5%	-18	0.68	-0.1	0.1	2.0
Cc1ccc(C)c(-c2cc(C(=O)Nc3cccc(C(=O)O)c3)c3ccccc3n2)c1	7.1	x	1	0.63	-2.2	0.2	0.6
CN(C(=O)COC(=O)c1nc(Cl)ccc1Cl)c1ccccc1	-6.3	x	-2	0.73	-4.2	1.0	3.6
CC1(C)C2CCC1(CS(=O)(=O)Nc1cccc(S(N)(=O)=O)c1)C(=O)C2 (stereo not given)	2.3	106%	1	0.63	3.7	0.8	1.6
O=C(CNC(=S)N(Cc1ccccc1F)C1CCCCC1)NCCN1CCOCC1	-2.1	x	0	0.71	1.6	0.5	-0.8
CC(C)C[C@@H](CN1CCCC1CN1C(=S)NC[C@@H]1Cc1ccc(O)cc1)N1C[C@H](Cc2ccc(O)cc2)N(CC2CCCCC2)C1=S (stereo not given in full)	x	-1%	27	x	0.1	x	x
N#CCC(=O)Nc1ccc(C(=O)NCc2ccccn2)cc1	-0.5	-9%	-3	0.7	-2.8	0.7	-1.8
CCOC(=O)c1c(S(=O)(=O)Nc2cccc(Cl)c2)c(C)n(C)c1C	-2.5	x	6	0.73	-2.2	0.6	-1.6
CCOC(=O)c1cnc2c(cnn2C)c1NCCC#N	2.5	-10%	0	0.72	0.2	1.0	0.3
CCOc1ccc(NC(=O)Nc2ccc(N(C)C(C)=O)cc2)cc1	2.2	13%	1	0.68	1.3	-0.6	1.1
Cc1ccc(NC(=O)COc2ccc(/C=C3/SC(=Nc4ccccc4)N(Cc4cccnc4)C3=O)cc2)cc1	4.0	0%	8	0.76	11	0.0	-0.2
COc1cccc(Nc2nc(-c3ccc(O)cc3)cs2)c1	0.9	3%	2	0.69	1.9	-0.7	4.7
O=S(=O)(NC1CCCC1)c1ccc(Br)s1	-5.0	-6%	4	0.62	0.3	0.5	1.5
COc1ccc(N2C(=O)/C(=C/c3ccc([N+](=O)[O-])cc3)N=C2C)c(OC)c1	-1.9	13%	1	x	-3.0	0.4	5.6
Cc1cccc(CNC(=O)C(C)n2nc(C)c3c(C)n(-c4ccccc4)nc3c2=O)c1 (stereo not given)	-0.7	x	-4	0.65	3.8	0.8	-0.1
O=C(CCc1ccccc1)Nc1cc(C(F)(F)F)ccc1Cl	-5.0	-7%	-5	0.7	-1.2	-0.3	2.8
O=C(NCc1ccc2c(c1)OCO2)C1CCCCC1	-0.6	8%	-11	0.65	-28	0.4	-1.1
O=C(COC(=O)c1ccc(S(=O)(=O)N2CCOCC2)cc1)NC1CCCCCCC1	3.3	x	1	0.69	0.2	0.9	0.1

Three compounds picked at random from those above:
SMILES	LANA-H2A inh	Vif TR-FRET	Beta2AR agonist	Ecoli growth	HNF4A DNA FP	Bfl-1 A1 inh	UCH37 inh
N#CCC(=O)Nc1ccc(C(=O)NCc2ccccn2)cc1	-0.5	-9%	-3	0.7	-2.8	0.7	-1.8
CC(C)C[C@@H](CN1CCCC1CN1C(=S)NC[C@@H]1Cc1ccc(O)cc1)N1C[C@H](Cc2ccc(O)cc2)N(CC2CCCCC2)C1=S (stereo not given in full)	x	-1%	27	x	0.1	x	x
Cc1cccc(CNC(=O)C(C)n2nc(C)c3c(C)n(-c4ccccc4)nc3c2=O)c1 (stereo not given)	-0.7	x	-4	0.65	3.8	0.8	-0.1

Among those listed so far, these contain a COOH group:
SMILES	LANA-H2A inh	Vif TR-FRET	Beta2AR agonist	Ecoli growth	HNF4A DNA FP	Bfl-1 A1 inh	UCH37 inh
Cc1cc(=O)c(C(=O)O)nn1-c1ccccc1F	6.4	x	-2	0.69	1.9	0.3	5.6
Cc1ccc(C)c(-c2cc(C(=O)Nc3cccc(C(=O)O)c3)c3ccccc3n2)c1	7.1	x	1	0.63	-2.2	0.2	0.6
